Bioassay records: PubChem, National Center for Advancing Translational Sciences (NCATS)
CtBP-E1A blk: qHTS Assay for Inhibitors of the CtBP/E1A Interaction; 340,000 tested, 0.49% active; CtBP / adenovirus E1A interaction (AlphaScreen); activity change, % (test concentration not listed); AlphaScreen GST-E1A/His-CtBP binding, 1536-well; hits give low values; control for the full effect not named in the record; AID 651724, 2012; in the data active means activity change below about -65%; inconclusive means about -30% to -65%; inactive means above about -30%; further: on the % scale 0 is the no-effect control and ±100 the full control effect; compound concentration not given in the record
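In 5 uL wells, 23 nL compound meets equimolar GST-E1A and His-CtBP (5X stock 125 nM each) for 2 h, 37 °C. Beads (5X, 50 ug/mL) then 1 h, 37 °C, dark.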
Six1-Eya2 inh: qHTS Assay for Inhibitors of the Six1/Eya2 Interaction. Homeobox protein SIX1 (Homo sapiens) + Protein phosphatase EYA2 (Homo sapiens), …. AlphaScreen GST-Six1/His-Eya2 binding, biochemical; hits give low values; control for the full effect not named in the record. activity change, % (test concentration not listed). 360,000 tested, 0.56% active. AID 651725, 2012; in the data active = activity change below about -65%; inconclusive = about -30% to -65%; inactive = above about -30%; further: on the % scale 0 is the no-effect control and ±100 the full control effect; compound concentration not given in the record
Target sequence (O00167 whole entry, looked up): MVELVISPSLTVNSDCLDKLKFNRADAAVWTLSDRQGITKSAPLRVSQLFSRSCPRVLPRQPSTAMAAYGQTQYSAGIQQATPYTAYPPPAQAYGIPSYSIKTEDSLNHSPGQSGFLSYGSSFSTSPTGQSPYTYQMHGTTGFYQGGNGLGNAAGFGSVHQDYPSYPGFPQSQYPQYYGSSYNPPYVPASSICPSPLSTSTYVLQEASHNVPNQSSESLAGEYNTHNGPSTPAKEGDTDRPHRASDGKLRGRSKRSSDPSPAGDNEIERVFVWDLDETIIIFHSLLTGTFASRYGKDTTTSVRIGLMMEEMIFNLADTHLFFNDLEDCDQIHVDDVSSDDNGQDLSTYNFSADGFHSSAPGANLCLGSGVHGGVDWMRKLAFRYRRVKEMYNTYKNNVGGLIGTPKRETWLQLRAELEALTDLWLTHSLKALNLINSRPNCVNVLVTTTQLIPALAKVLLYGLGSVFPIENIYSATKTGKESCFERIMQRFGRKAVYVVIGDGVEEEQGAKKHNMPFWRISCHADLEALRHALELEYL
Target sequence (Q15475 whole entry, looked up): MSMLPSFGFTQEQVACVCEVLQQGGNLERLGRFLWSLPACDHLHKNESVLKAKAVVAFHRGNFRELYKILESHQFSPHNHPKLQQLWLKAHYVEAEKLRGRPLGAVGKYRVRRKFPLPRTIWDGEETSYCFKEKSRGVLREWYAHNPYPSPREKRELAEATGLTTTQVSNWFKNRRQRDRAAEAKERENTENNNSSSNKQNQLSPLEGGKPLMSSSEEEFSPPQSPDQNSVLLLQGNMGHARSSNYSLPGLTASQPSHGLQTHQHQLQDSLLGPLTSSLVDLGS
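AlphaScreen luminescence read after one hour at 37 °C in darkness. Pin-transferred compounds met GST-Six1 and His-Eya2 protein (5X stock 250 nM/500 nM) plus glutathione donor and Ni-chelate acceptor beads (5X, 50 ug/mL).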
PINK1 expr mod: A Quantitative High throughput Screen to Identify Chemical Modulators of PINK1 Expression | Potency, µM (series often up to 76.6 µM), inactives show top-dose activation (PINK1 increase), most hits filed as activators | PINK1 immunofluorescence, high-content cytometry, 24 h | 410,000 tested, 0.2% active | AID 624263, 2012; active = well fitted activation curve with a large enough effect; inconclusive = small, poorly fitted or top-dose-only effect; inactive = flat fitted curve, though single readings scatter; cell line not stated here;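 further: potency means the concentration at half of the fitted maximal effect; % of control where 0% means no effect; nearly all actives have a fitted effect of over 65% in size; a mitochondrial uncoupler was the plate control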
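Cells are seeded, rested 12 hours, then given compound at five concentrations or DMSO for 24 hours. After fixation, blocking and antibody staining, PINK1 amount and mitochondrial localization are scored; CCCP serves as control.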
D2 potentiator: Beta-Arrestin HTS for Positive Allosteric Modulators of the Human D2 Dopamine Receptor: Potentiators. D(2) dopamine receptor (Homo sapiens), P14416. DiscoveRx D2 beta-arrestin cells, luminescence, 90 min; 100% = 57 uM dopamine signal. potentiation, % (concentration not given with the values). 360,000 tested, 0.23% active. AID 624464, 2012; active = potentiation of 50% or more; inconclusive = 30% to 50%; inactive = 30% or less;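 further: compound concentration not given in the record; tested on top of an EC20 dose of dopamine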
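PathHunter beta-arrestin assay in DiscoveRx D2 cells. Compounds were added with an EC20 of dopamine (50 nM final) for 90 min at 37 deg C. Luminescence was read 1 h after detection reagent, with 57 uM dopamine as the EC100 control.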
D2 agonist: Beta-Arrestin HTS for Positive Allosteric Modulators of the Human D2 Dopamine Receptor: Agonists. activation, % (concentration not given with the values). DiscoveRx PathHunter D2 beta-arrestin, luminescence, 90 min; 100% = 57 uM dopamine signal. D(2) dopamine receptor (Homo sapiens), P14416. 360,000 tested, 0.084% active; in the data active = activation above about 40%; inconclusive = about 15% to 40%; inactive = below about 15%; further: compound concentration not given in the record; the text of the record calls up to 30% inactive
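DiscoveRx PathHunter D2 beta-arrestin cells (2,100/well) attached overnight, then compound-stimulated 90 min at 37 C in HBSS/10 mM HEPES/0.1% Tween-20 buffer; beta-galactosidase complementation read by luminescence after 1 h at ambient temperature. Dopamine 57 uM final (EC100) as control.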
TRPML1 ag: qHTS for Agonists of the Human Mucolipin Transient Receptor Potential 1 (TRPML1); Mucolipin-1 (Homo sapiens), Q9GZU1; TRPML1-expressing cells, Ca2+ dye fluorescence, FDSS; host cell line not named in the record; reference of the full effect not given here; activation, % (no concentration beside the values); 410,000 tested, 0.12% active; AID 624414, 2012; in the data active = activation above about 50%; inconclusive = about 30% to 50%; inactive = below about 30%; further: 0% is about no effect; the text of the record puts the active cut at 80%
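Calcium fluorescence on an FDSS kinetic reader gave the read-out. Tet-induced TRPML1-DL cells were plated overnight, dye-loaded (Ca8 with quencher, 45-90 min, room temperature, dark), then read 110 s after compound addition, and again 110 s after 4uM final 54-4 (EC80).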
An asterisk follows results filed as active; ? = inconclusive; . = not tested or not shown; & = joins results of further samples; [ ] = another dose, or the depositor's remark.

SMILES	CtBP-E1A blk	Six1-Eya2 inh	PINK1 expr mod	D2 potentiator	D2 agonist	TRPML1 ag
CCC1Oc2ccccc2N(CC(=O)N2CCOCC2)C1=O (stereo not given)	-1.9	-2.1	-0.2%	0.7	-3.6	-0.1
CCOc1ccc(C(=O)OCc2nnc(-c3cccs3)o2)cc1OC	-6.9	0.2	0.3%	-12.5	-1.7	1.0
O=C(CSc1nnc(-c2ccc(O)cc2)n1-c1ccccc1)CC(=O)Nc1ccccc1	-14.8	-12.8	-1.8%	-6.0	-2.7	0.6
Cc1cc2c(cc1C)CN(c1ccccc1)C2	.	-2.0	0.1%	-15.4	-3.9	-0.6
CCOC(=O)c1ccc(-n2c(CN3CCC(O)CC3)nc3ccc([N+](=O)[O-])cc3c2=O)cc1	-0.9	-4.9	0.1%	5.5	3.8	-0.4
Cc1ccc(NC(=O)c2cc3c(CO)cnc(C)c3oc2=Nc2cccc(C(N)=O)c2)cc1	-1.9	-4.1	-1.0%	6.1	0.9	0.6
C[C@@H]1CN([C@H](C)CO)C(=O)CCCn2cc(nn2)CO[C@H]1CN(C)C(=O)CCC(F)(F)F	4.1	4.8	1.7%	-17.1	-9.2	-0.2
OC1(c2ccccc2F)CCN(Cc2nnnn2CCc2ccccc2)CC1	9.9	0.7	-4.6%[38.3 µM]	-18.2	0.9	-0.3
COC(=O)C(Cc1c[nH]c2ccccc12)NC(C)=O (stereo not given)	-6.0	9.5	1.4%	-5.0	0.4	-0.5
COc1ccccc1NC(=O)c1ccc2c(=O)n3c(nc2c1)CCC3	-18.5	-25.7	0.4%	-20.7	-1.7	0.0
CCC(=O)c1ccc(OCc2ccc(C(=O)OC)cc2)cc1	15.9	9.3	0.4%	4.9	7.5	1.0
CCOC(=O)c1sc(NC(=O)c2cccnc2)c(C#N)c1C	0.3	7.8	0.5%	-10.0	2.5	0.3
CSc1ccc(NC(=O)/C=C/C(=O)O)cc1	2.8	0.1	1.6%	-2.3	-3.3	-0.1
CCN(C(=O)COC(=O)c1ccc2c(c1)OCO2)c1ccc(F)cc1	4.6	4.7	-1.8%	-25.4	-1.2	-0.5
CCCCN=C1NN=C(c2ccc3c(c2)OCCO3)CS1	-4.4	-27.8	-1.6%	-4.4	3.2	0.4
CC1CCCCN1CCCNC(=O)C1CCCN(c2ncnc3c2nc2n3CCCCC2)C1 (stereo not given)	-6.9	0.0	0.2%	-12.3	-0.4	0.2
O=C(NCC1CCCO1)c1cccc(NS(=O)(=O)c2ccccc2)c1 (stereo not given)	10.5	1.1	2.4%	-15.5	-3.6	-0.4
O=C(CSc1ccccn1)Nc1nncs1	-29.4	-10.4	0.1%	10.5	-0.4	0.6
CCC(C)Sc1ccc([C@H]2N[C@@](C)(C(=O)OC)[C@H]3C(=O)N(CC)C(=O)[C@@H]23)cc1OC (stereo not given in full)	-0.4	10.3	0.6%	-1.5	-4.6	-0.3
Cc1ccc(NC(=O)C2CCCN2C(=O)Oc2ccccc2)cc1C (stereo not given)	14.2	12.7	2.0%	-5.0	-2.7	-0.2
Cc1ccc(S(=O)(=O)N(C)CCCC(=O)Nc2ccncc2)cc1	-2.7	5.0	-0.6%	-7.9	-3.7	-0.4
Cc1ccc(NC(=O)Nc2ccc(F)cc2)cc1Cl	18.3	14.4	2.8%	3.6	2.9	0.4
Cc1nc2ccccc2nc1OCC(=O)NCc1ccc2c(c1)OCO2	-8.1	1.9	-0.5%	1.2	1.6	-1.4
COc1ccc(NC(=O)CC2(CC(=O)N3CCOCC3)CCCC2)cc1Cl	-1.1	1.5	-0.4%	-20.1	-5.1	0.9
CC(C)(C)[C@H](N)C(=O)N[C@H]1CCC2C3CC=C4C[C@@H](O)CC[C@]4(C)C3CC[C@@]21C (stereo not given in full)	-0.8	4.9	-7.2%	-6.6	6.5	1.2

The listing continues:
SMILES	CtBP-E1A blk	Six1-Eya2 inh	PINK1 expr mod	D2 potentiator	D2 agonist	TRPML1 ag
CC1CCC(C(C)C)C(OC(=O)Cn2c(-c3ccccc3)[n+](C)c3ccccc32)C1 (stereo not given)	-3.8&16.4	-4.3&8.3	?	-41.2&-43.9	-7.4&-9.2	2.5&0.3
CCCCN(C(=O)C1CSC2(C)CCC(=O)N12)c1c(N)n(CC(C)C)c(=O)[nH]c1=O (stereo not given)	12.8	-10.2	0.2%	8.1	-1.8	-0.1
O=C(CCCc1ccccc1)NCCS(=O)(=O)N1CCN(c2ccccc2)CC1	11.9	-4.4	2.6%	-14.7	0.5	-0.5
C1CCC2(CC1)C1=C(CCCC1)Nc1nnnn12	4.1	15.7	.	-12.2	-2.9	-0.3
CC(=O)NC(NC(C)=O)c1ccc(N(C)C)cc1	4.9	-0.5	1.2%	-16.3	-0.3	-0.4
Cc1c(C(=O)NCc2c(F)cc(F)cc2F)oc2ccc(S(=O)(=O)N3CCOCC3)cc12	8.8	-3.6	5.0%	4.4	3.8	-1.6
Nc1ccc2c(O)cc(S(=O)(=O)O)cc2c1	?	?	-1.1%	21.4	14.8	-0.5
COc1ccc(C(=O)O)cc1S(=O)(=O)Nc1cccc(C)c1	2.5	-2.1	0.3%	-3.2	-2.8	-0.2
Cc1nc(-c2ccc(NC(=O)CC(C)C)cc2)cs1	-1.0	5.3	1.8%	-4.9	-5.6	-0.7
CCOC(=O)c1cnc(SCC(=O)c2ccc3c(c2)OCCO3)nc1N	8.1	-1.2	-0.1%[38.3 µM]	-10.4	-0.1	0.2
CCCCN(C(=O)/C=C/c1ccccc1)C1CCS(=O)(=O)C1 (stereo not given)	6.8	-6.4	3.1%	-2.3	-2.2	-0.9
CCc1ccc(/C(C)=N/NS(=O)(=O)c2ccc(OC)cc2)s1	3.2	1.0	1.9%	-5.3	3.2	2.6
CCOc1cc(NS(=O)(=O)c2ccc(NC(C)=O)cc2)c(OCC)cc1NC(=O)c1cccs1	-9.0	-8.1	4.0%	-13.6	1.9	1.7
CNC(C)C(=O)NC(C(=O)NC(C)C(=O)NNc1ccccc1)C(C)C (stereo not given)	4.9	5.6	0.8%	-3.6	-3.9	-0.1
CN1CC(C(=O)O)Cc2c1ccc1ccccc21 (stereo not given)	-28.5	-17.4	-0.1%	17.9	6.9	-0.7
Cc1ccc(NC(=O)CN2CCN(C(=O)c3ccco3)CC2)cc1S(=O)(=O)N(C)C	1.5	-1.1	0.4%	29.6	44.5*	0.5
Cc1ccc(/C=C/C(=O)Nc2ccc(S(=O)(=O)Nc3cc(C)nc(C)n3)cc2)cc1	?	-18.3	0.5%	3.4	0.3	-0.7
COc1cccc(C(=O)Oc2cc(-c3ccccc3)no2)c1	5.4	-0.2	1.2%	-16.2	-1.9	-0.1
O=C1/C(=C\c2ccc(O)cc2)CCC1CNc1ccc(Cl)cc1 (stereo not given)	-1.1	5.4	3.0%	-3.8	2.8	8.3
CCOc1cc(/C=C/C(=O)c2ccc(OC)c(CN3CCOCC3)c2)cc(Br)c1O	-2.7	4.3	0.5%	-7.6	-2.9	13.9
CCC(C(=O)N1CCC(C(N)=O)CC1)n1nc(C)n2c(cc3occc32)c1=O (stereo not given)	8.4	-0.5	2.4%	4.6	0.1	-0.1
CCOC(=O)N1CCN(C(=O)c2ccc3c(=O)n(CCC4=CCCCC4)c(=O)[nH]c3c2)CC1	-2.5	1.2	-0.8%	8.1	-3.0	1.0
CC(C)C[C@@H](CN1CCC[C@H]1CN1C(=O)C(=O)NC[C@@H]1Cc1ccc(O)cc1)N1C[C@H](Cc2ccc(O)cc2)N(CC2CCCCC2)C(=O)C1=O	0.0	12.3	1.9%	.	.	-0.2
CCN(CC)C(=O)c1ccc2c(=O)n(Cc3ccc4c(c3)OCO4)c(=S)[nH]c2c1	.	-2.5	4.8%	-8.3	4.5	1.0
CCS(=O)(=O)N1CCN(C(=O)c2cccc(OC)c2)CC1	-4.0	4.9	-1.7%	4.9	-2.4	0.0

Other results follow.
SMILES	CtBP-E1A blk	Six1-Eya2 inh	PINK1 expr mod	D2 potentiator	D2 agonist	TRPML1 ag
COCCNC(=O)CCN1N=C(c2ccccc2)CCC1=O	3.3	-0.3	-0.5%	-4.2	-0.8	-0.2
Cc1ccc(S(=O)(=O)N2CCN(CCNC(=O)C(=O)NCc3ccccc3)CC2)cc1	4.0	2.8	-2.8%	-8.7	-3.1	-0.4
CCN(CC)S(=O)(=O)c1ccc(Oc2ccccc2OC)cc1	20.1	6.7	-0.4%	4.1	-0.7	.
Cc1ccccc1-c1cc2nc(Oc3cccc(F)c3)n(C)c(=O)c2s1	-7.8	15.8	4.1%	-3.2	-1.8	0.4
CC1(OC(=O)CCc2ccccc2)C(=O)C=C2C=C(c3ccc(C#N)cc3)N(c3ccccc3)C=C2C1=O (stereo not given)	0.0	-6.5	-0.3%	11.2	12.3	-0.8
COc1ccc(N2C(=O)CC(N3CCN(Cc4ccc5c(c4)OCO5)CC3)C2=O)cc1 (stereo not given)	-3.1	14.1	5.4%	3.0	-12.4	0.4
CCS(=O)(=O)Nc1cccc(C(=O)O)c1	4.3	-8.7	1.8%	-1.2	-5.5	.
O=C1CC(c2cccc(Cl)c2)CC(O)=C1C=Nc1cccc(Cl)c1 (stereo not given)	-3.1	9.0	-1.7%	-6.5	-2.0	0.8
C=CCNc1cc(N2CCCC2)ccc1[N+](=O)[O-]	-10.8	-20.0	0.1%	-0.9	0.0	0.8
CCN(CC)S(=O)(=O)c1ccc(NS(=O)(=O)c2ccc(F)cc2)cc1	1.5	1.1	0.3%	19.6	0.2	-0.1
COc1nc(N(C)S(=O)(=O)c2ccc(C)cc2)nc(C)c1Br	.	8.0	0.3%	7.4	-1.0	.
Cc1ccc(/C(N)=N/OC(=O)c2ccco2)cc1	10.6	8.6	-2.3%	55.7*	4.5	0.6
CCn1nnc2cc(C(=O)Nc3ccc(C(=O)OC(C)C)cc3)ccc21	7.3	4.0	11.2%	5.2	?	2.5
Cn1c(SCC(=O)c2ccccc2)nnc1-c1ccco1	2.8	2.5	-0.5%	-13.8	-2.2	1.4
N#C/C(=C/c1ccc(OCc2ccccc2)cc1)C(=O)NC1CCCCC1	-1.0	2.7	10.7%	11.2	-3.4	0.5
C/C(=C\C(=O)c1ccccc1)NNc1nc2ccccc2s1	11.7	10.0	-3.0%	1.0	-2.0	3.7
COc1ccc(OCCNC(=O)c2cc(C3CC3)nc3c2cnn3C(C)C)cc1	-0.3	-4.5	2.0%	-26.5	-1.1	6.9

Retrieved by compound from above (2):
SMILES	CtBP-E1A blk	Six1-Eya2 inh	PINK1 expr mod	D2 potentiator	D2 agonist	TRPML1 ag
C=CCNc1cc(N2CCCC2)ccc1[N+](=O)[O-]	-10.8	-20.0	0.1%	-0.9	0.0	0.8
Cc1ccc(S(=O)(=O)N2CCN(CCNC(=O)C(=O)NCc3ccccc3)CC2)cc1	4.0	2.8	-2.8%	-8.7	-3.1	-0.4
